OX1R FRET antag = antagonists of human orexin 1 receptor (OX1R); 1.8% of 330,000 active; AID 485270, 2010; Orexin/Hypocretin receptor type 1 (Homo sapiens), O43613; OX1R-expressing cells, FRET antagonist read-out; inhibition, % at 6.6 µM; in the data active = inhibition mostly above about 38%, no sharp cut-off; inactive = mostly below about 40%;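 also: 0% = agonist challenge alone and 100% = reference antagonist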
Target sequence (O43613 whole entry, looked up): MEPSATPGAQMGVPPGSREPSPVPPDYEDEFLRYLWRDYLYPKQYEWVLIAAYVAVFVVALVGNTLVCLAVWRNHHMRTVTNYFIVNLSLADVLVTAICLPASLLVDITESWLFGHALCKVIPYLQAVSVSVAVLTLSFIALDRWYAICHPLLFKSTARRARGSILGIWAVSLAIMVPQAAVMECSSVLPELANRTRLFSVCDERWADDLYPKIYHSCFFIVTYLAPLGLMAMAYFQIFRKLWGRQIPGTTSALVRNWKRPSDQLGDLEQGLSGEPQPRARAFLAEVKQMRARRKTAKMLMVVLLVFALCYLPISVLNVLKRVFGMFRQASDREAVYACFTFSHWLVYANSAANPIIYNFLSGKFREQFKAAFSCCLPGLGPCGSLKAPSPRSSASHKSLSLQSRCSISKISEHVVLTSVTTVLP
Active calls of the source: *.

SMILES	OX1R FRET antag
O=C(O)C1CCCN1C(=O)Nc1ccc(F)cc1 (stereo not drawn)	4.2
O=C(CCN1C(=O)[C@@H]2Cc3ccccc3CN2C1=O)NCCc1ccccc1	4.8
O=C(Cn1ccc2cc(S(=O)(=O)N3CCCCC3)ccc21)NCc1ccccc1F	14.5
COC(=O)C1CCN(C(=O)c2ccc(NC(C)=O)cc2)CC1	2.8
COc1ccc(OC)c(C2C3=C(CC(C)(C)CC3=O)Nc3nnnn32)c1 (stereo not drawn)	10.2
CC(C)(C)OC(=O)NCCCC[C@H](NC(=O)c1nc[nH]c1C(=O)NC1CCN(C(=O)OC(C)(C)C)CC1)C(=O)OC(C)(C)C	2.6
CCCCCCNC1=NCCS1	0.3
CC1(C)OC(C)(C)/C(=C\c2ccccc2[N+](=O)[O-])C1=O	13.3
CN(C)c1ccc(C(=S)N2CCN(S(=O)(=O)c3ccccc3)CC2)cc1	18.0
COc1cc(C(=S)N2CCCCC2)ccc1OCC(=O)Nc1ccccc1Cl	19.0
COc1ccc(CCNC(=O)c2ccc(OCc3c(C)noc3C)cc2)cc1OC	-1.3
CCCn1nc(C(=O)Nc2nnc(C3CC3)s2)c2ccccc2c1=O	13.7
Cc1ccccc1Cn1c(=N)n(CC(=O)c2ccc([N+](=O)[O-])cc2)c2ccccc21	19.6
CN1C(=O)N(C)c2ccc(C=O)c3cccc1c23	16.6
Cc1noc(C)c1S(=O)(=O)N1CCCC(C(=O)NCC2CCCO2)C1 (stereo not drawn)	6.5
CCOC(=O)CSc1nnc(CNc2cccc(Cl)c2)n1C	13.1
C/C(=N\Nc1ccc(S(=O)(=O)Nc2ccc(Cl)cc2)cc1[N+](=O)[O-])c1ccc(N2CCOCC2)cc1	15.3
CN1CCN(c2ccccc2NC(=O)c2ccccc2F)CC1	12.3
CC1CCN(c2ccc([N+](=O)[O-])cc2C(=O)O)CC1	50.5
O=C(Nc1ccccc1Cl)c1ccccc1Oc1ccc(C(F)(F)F)cc1[N+](=O)[O-]	72.8
COc1ccccc1CNC(=O)C/C(C)=N/NC(=O)COc1ccc(C)cc1Br	5.6
CC1(c2ccc(O)cc2)NC(=O)N(c2ccccc2)N1 (stereo not drawn)	24.2
CCOC(=O)C(=O)NC12CC3CC(CC(C3)C1)C2	19.9
COc1ccc(NC(=S)N(Cc2cccnc2)Cc2cc3cc(OC)c(OC)cc3[nH]c2=O)cc1	13.0
O=C(COC(=O)C1COc2ccccc2O1)Nc1cccc(S(=O)(=O)N2CCCCC2)c1 (stereo not drawn)	7.0

Five entries already listed, sorted by formula weight, rising.
SMILES	OX1R FRET antag
CN1CCN(c2ccccc2NC(=O)c2ccccc2F)CC1	12.3
CCCn1nc(C(=O)Nc2nnc(C3CC3)s2)c2ccccc2c1=O	13.7
Cc1noc(C)c1S(=O)(=O)N1CCCC(C(=O)NCC2CCCO2)C1 (stereo not drawn)	6.5
Cc1ccccc1Cn1c(=N)n(CC(=O)c2ccc([N+](=O)[O-])cc2)c2ccccc21	19.6
C/C(=N\Nc1ccc(S(=O)(=O)Nc2ccc(Cl)cc2)cc1[N+](=O)[O-])c1ccc(N2CCOCC2)cc1	15.3

Compounds shown so far that contain a halogen (8):
SMILES	OX1R FRET antag
O=C(O)C1CCCN1C(=O)Nc1ccc(F)cc1 (stereo not drawn)	4.2
O=C(Cn1ccc2cc(S(=O)(=O)N3CCCCC3)ccc21)NCc1ccccc1F	14.5
COc1cc(C(=S)N2CCCCC2)ccc1OCC(=O)Nc1ccccc1Cl	19.0
CCOC(=O)CSc1nnc(CNc2cccc(Cl)c2)n1C	13.1
C/C(=N\Nc1ccc(S(=O)(=O)Nc2ccc(Cl)cc2)cc1[N+](=O)[O-])c1ccc(N2CCOCC2)cc1	15.3
CN1CCN(c2ccccc2NC(=O)c2ccccc2F)CC1	12.3
O=C(Nc1ccccc1Cl)c1ccccc1Oc1ccc(C(F)(F)F)cc1[N+](=O)[O-]	72.8
COc1ccccc1CNC(=O)C/C(C)=N/NC(=O)COc1ccc(C)cc1Br	5.6

Going on with the list.
SMILES	OX1R FRET antag
CN1CCCC(n2nc(Cc3ccc(Cl)cc3)c3ccccc3c2=O)CC1 (stereo not drawn)	1.8
O=C(CSc1ccccn1)Nc1ccc(N2CCOCC2)cc1	24.9
COc1ccc(C2C3=C(CC(C)(C)CC3=O)N(CC(=O)O)C3=C2C(=O)CC(C)(C)C3)cc1OC	19.7
O=C(CSc1ccc2nnc(-c3ccccn3)n2n1)Nc1ccccc1	35.0
COc1cc(C(=O)Nc2sc3c(c2C#N)CCN(C(C)=O)C3)cc(OC)c1OC	19.7
CCCC1Cc2c(sc3ncnc(N)c23)CO1 (stereo not drawn)	-0.2
CC(=O)c1ccccc1OCCOCCOc1ccccc1C(C)=O	23.7
CCOc1ccc2nc(NC(=O)CSc3nnc(-c4ccncc4)n3CC3CCCO3)sc2c1 (stereo not drawn)	7.7
COc1cc(C(=O)NC2CCN(Cc3nnnn3Cc3ccc(F)cc3)CC2)cc(OC)c1OC	2.7
O=C(COC(=O)c1nc(Cl)ccc1Cl)c1ccc(Cl)s1	9.9
Cc1cccn2cc(-c3ccc(Cl)cc3)nc12	27.1
COc1ccc(CCNC(=O)C(C)SCc2ccccc2)cc1 (stereo not drawn)	13.1
Cc1ccc(NC(=O)N2CCC(O)(c3ccc(Cl)cc3)CC2)cc1	10.2
CN1CCN(S(=O)(=O)c2ccc(N(C)Cc3ccc(OC(F)F)cc3)c([N+](=O)[O-])c2)CC1	-0.5
Cc1occc1C(=O)NNC(=S)Nc1ccccc1	0.0
COCCCNC(=O)C1CCN(S(=O)(=O)c2c(C)noc2/C=C\c2ccc(OC)cc2)CC1	7.4
CCn1cc(CCC(=O)NCc2cccc(OC)c2OC)c2ccccc21	-1.0
COc1ccc(OC(=O)c2cn(C)nc2C(F)(F)F)cc1	18.9
CCCCCCCNC(=O)C1(CC2CC(c3ccc(Cl)cc3)=NO2)CCN(C(=O)CCCCCBr)CC1 (stereo not drawn)	4.2
Cc1nc2c(C)cccn2c(=O)c1NC(=O)c1ccc2c(c1)OCO2	10.7
Cc1cc(C)cc(NS(=O)(=O)c2cc3[nH]c(=O)c(=O)[nH]c3cc2C)c1	2.9
CCOc1ccc(NC(=O)NC2CCOC(C)(C)C2)cc1 (stereo not drawn)	23.3
COc1ccccc1CC(=O)NCCc1ccc(S(N)(=O)=O)cc1	1.1
Cc1cc(Cl)ccc1NC(=S)NCCN1CCOCC1	10.9
COc1ccc(OC)c(C(=O)COC(=O)c2ccc(C)o2)c1	17.6

Next part:
SMILES	OX1R FRET antag
COC(=O)C1=CN(c2ccc(F)cc2)C=C(C(=O)OC)C1c1cccc([N+](=O)[O-])c1	1.9
NNc1nc2c(F)cccc2s1	21.5
Cc1ccc(NC(=O)NC(=O)CSc2nnc(-c3ccc(Cl)cc3Cl)n2N)c(C)c1	10.3
Cc1ccc(Cn2c(=O)oc3ccccc32)cc1	-0.3
CC1CCc2c(C(=O)NCC3CCCO3)csc2C1 (stereo not drawn)	-4.4
Nc1nnc(SCCN2C(=O)c3ccccc3C2=O)s1	23.1
Cc1[nH]c2c(C)cccc2c(=O)c1CN1CCCCCC1	-4.9
Cc1ccc(NC(=O)c2cc([N+](=O)[O-])ccc2N2CCOCC2)cc1S(=O)(=O)N1CCOCC1	24.1
O=S(=O)(N1CCOCC1)N1CCCN(S(=O)(=O)N2CCOCC2)CC1	24.3
COc1ccc(NS(=O)(=O)c2cccc(C(=O)NCC(c3ccc(OC)cc3)N3CCOCC3)c2)cc1 (stereo not drawn)	35.2
Fc1ccc(F)c(C2=NNC(=NCC3CCCO3)SC2)c1 (stereo not drawn)	3.8
Cc1cccc(N2CCN(C(=S)c3ccccc3)CC2)c1	11.4
COc1ccc(C2CC(c3ccc(OC)cc3)n3nc(NC(=O)c4ccco4)nc3N2)cc1 (stereo not drawn)	9.7
Cn1c(N2CCN(S(=O)(=O)c3ccc(F)cc3)CC2)nc2ccccc21	12.8
Cc1cc(C(=O)COc2cccc(-n3cnnn3)c2)c(C)n1-c1ccccc1	14.7
CSc1cccc(NC(=O)c2[nH]c(C)c(C(C)=O)c2C)c1	34.7
Cc1cc(CN(C)C(=O)c2ccc(OC3CCN(S(=O)(=O)N(C)C)CC3)cc2)n[nH]1	4.9
Clc1ccc(-n2nnnc2CN2CCOCC2)cc1	7.9
Cc1nnc(SC(C)C(=O)Nc2nccs2)s1 (stereo not drawn)	4.5
Cc1nnc(NC(=O)CN2CCN(Cc3ccc(F)cc3Cl)CC2)s1	0.7
CCc1ccc2oc(=O)cc(CN3CCOCC3)c2c1	19.1
Clc1ccccc1/C=C/C=N/Nc1nc(N2CCOCC2)nc(N2CCOCC2)n1	15.8
COCCn1c(N)c(S(=O)(=O)c2cccs2)c2nc3ccccc3nc21	31.4
O=C(CCC(=O)N1CCN(c2ccccn2)CC1)Nc1nnc(C(F)(F)F)s1	1.6
N#Cc1cccc(C(=O)OCC(=O)N2CCCc3ccccc32)c1	20.1

(further entries)
SMILES	OX1R FRET antag
CCCCCC(=O)NC(=S)Nc1ccc(NC(=O)c2ccco2)cc1	20.7
CC(C)n1cc(/C=N/Nc2ccc(C(=O)O)cc2)c2ccccc21	4.8
CCOC(=O)C1CCCN(C(=O)c2cc(-c3ccc(C)cc3)on2)C1 (stereo not drawn)	15.0
COC(=O)Cn1c2ccc(OC)cc2c2nc(C)sc21	9.5
Cc1ccc(CNC(=O)c2ccccc2NC(=O)CSc2nnnn2C)cc1	19.5
CCN(Cc1ccccc1)c1ccc(/C=N/NS(=O)(=O)c2ccc(C)c([N+](=O)[O-])c2)cc1	28.3
O=C(CSc1nc2ccccc2[nH]1)N1CCN(c2ccc(F)cc2)CC1	25.6
CCOc1ccccc1NS(=O)(=O)c1c(C)noc1C	15.1
O=C(O)CNC(=O)c1cccc(C(F)(F)F)c1	10.5
COc1ccc(C(=O)N[C@H](C(=O)NCC2CCCCC2)C(C)C)cc1	8.7
O=C(NNc1nc2ccccc2s1)Nc1ccc(Cl)c(Cl)c1	5.8
CCOc1ccc(NC(=O)C2C3CC/C=C\CCC32)cc1 (stereo not drawn)	13.0
O=C(Nc1ccc(-c2nc3c(ccc4ccccc43)o2)cc1)c1ccco1	0.5
O=C(c1ccccc1)c1cccn1CC(=O)N1CCN(C2CCCCC2)CC1	15.7
O=C(Nc1cc(Cl)ccc1-n1cncn1)c1ccc(F)c(S(=O)(=O)N2CCOCC2)c1	16.9
Cc1ccc(NC2c3ncccc3C(=O)N2C2CCCCC2)cc1 (stereo not drawn)	8.9
O=C1OC2(c3ccccc3)C3CCCC2C13	3.6
Cc1ccc(C2=NN(C3=NN=C(N)Cc4ncnn43)C(O)(C(F)(F)F)C2)cc1 (stereo not drawn)	12.5
Cc1ccc(CN2CCN(C(=O)CCN3C(=O)c4ccccc4C3=O)CC2)cc1	15.2
COc1cc(S(=O)(=O)N2CCOCC2)ccc1N	0.7
Cc1ccc(NC(=O)c2cc(=O)c3ccccc3o2)cc1S(=O)(=O)N1CCOCC1	24.6
O=C(Nc1nnc(SCc2ccccc2)s1)c1cc2c(s1)CCCC2	25.8
O=S(=O)(c1ccc(Br)cc1)c1cnc2ccccc2n1	6.2
COC(=O)CCC(=O)c1oc2ccccc2c1NC(=O)CCCN1C(=O)c2ccccc2C1=O	32.3
O=C1C=C(c2ccc(O)cc2)C[C@@H](c2ccc(Cl)cc2)C1	4.0

Additional entries:
SMILES	OX1R FRET antag
COc1ccc(-c2nc(SCC(=O)N3CCCC3)n[nH]2)cc1	9.3
O=C(CN(C(=O)CCC(=O)Nc1nccs1)c1cccc(F)c1)NCC1CCCO1 (stereo not drawn)	15.0
Cn1c(=O)oc2cc(S(=O)(=O)CCC(=O)N3CCN(c4ccccc4)CC3)ccc21	2.7
COc1ccccc1S(=O)(=O)Nc1ccc(S(=O)(=O)Nc2nccs2)cc1	6.3
CN(CC(=O)Nc1cccc(F)c1)C(=O)c1cccc(S(=O)(=O)N2CCN(c3ccccc3)CC2)c1	9.6
Cc1ccc(C)c(C(=O)CC2(O)C(=O)N(C)c3ccccc32)c1 (stereo not drawn)	35.3
CN(c1ccc(C(=O)Nc2ccccc2Sc2ccccc2)cc1)S(C)(=O)=O	15.1
O=C(c1ccccc1)C1CCN(C(=O)c2c(F)cccc2F)CC1	-6.3
Cc1ccccc1-n1nc(-c2cccnc2)cc1C(=O)NN	24.5
O=C(Nc1ccc(SC(F)F)cc1)c1ccc(F)cc1	14.8
O=C(N/C(=C/c1ccccc1)C(=O)N1CCOCC1)c1ccc([N+](=O)[O-])cc1	21.0
Cc1cc(C)c(S(C)(=O)=O)c(Oc2ccc(C(C)(C)C)cc2)n1	21.6
CC(=O)Oc1ccc(C(=O)[C@H]2[C@H]3C(=O)N(c4ccc(C)cc4)C(=O)[C@H]3[C@@H]3C=CC=NN32)cc1	45.6
O=C(Nn1cnnc1)c1csc2ccccc12	9.1
CC(C)c1nnc(NC(=O)CSc2ncn[nH]2)s1	21.9
CC(=O)c1ccc(OCCCC(=O)NC2=NCCS2)cc1	6.2
COc1ccccc1N1CCN(C2CCN(C(=O)c3cc(OC)c(OC)c(OC)c3)CC2)CC1	19.9
CCNC(=O)CSc1nc2cc([N+](=O)[O-])ccc2n1-c1cccc(C(F)(F)F)c1	29.7
COc1ccc(N2C(=O)CS/C2=C\[N+](=O)[O-])cc1	27.9
CCOC(=O)C1CCCN(C2CCN(Cc3nc(-c4ccccc4)no3)CC2)C1 (stereo not drawn)	7.2
Cn1c(SCC(=O)N2CCCC2=O)nc2ccccc2c1=O	5.5
CCCNC(=O)c1nnsc1Sc1ccc(Cl)cc1	38.6
CCOc1cccc(-c2nnc3sc(COc4ccccc4)nn23)c1	15.1
Cc1cc(C)cc(N(CCC#N)C(=O)COC(=O)C2CCN(S(=O)(=O)c3ccc(C)c(C)c3)CC2)c1	5.4
COc1ccc(-c2nc(CS(=O)CC(=O)NC3CCC(C)CC3)c(C)o2)cc1OC (stereo not drawn)	18.2
COc1ccc(N2CCN(C(=O)c3cccc(N4C(=O)C5CC=CC(C)C5C4=O)c3)CC2)cc1 (stereo not drawn)	8.8
COc1cccc(/C=N/NC(=S)Nc2cccc(C(=O)O)c2)c1	3.3
Cc1ccc(S(=O)(=O)Nc2cccc(C(=O)N3CCOCC3)c2)c(C)c1NS(C)(=O)=O	3.4

Assay outcomes (PubChem BioAssay)

Only part of the results is shown, and most or all hits are left out here.
